T cruzi inh: T. cruzi replication inhibition; T. cruzi beta-gal in NIH3T3, luminescence, 90 h; inhibition, % (no concentration beside the values); 300,000 compounds, 1.4% hits; AID 1885;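 active = mean inhibition across valid replicates above about 55%, limit read from the data; inconclusive = mean below that limit but half or more replicates reach it; inactive = mean below it, under half of replicates reach it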;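 also: signal also drops with host cell toxicity which is not excluded here; 0% = plate median of DMSO wells and 100% = zero luminescence signal; higher percent means less beta-gal luminescence so fewer parasites; stock transfer was 50 nL into about 50 µL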
A1 inh: inhibitors of the anti-apoptotic protein A1, read as caspase activation; MEF A1-2A-BIM cells, Caspase-Glo 3/7 luminescence, 3 h; percent of clofoctol response, vehicle zero; caspase activation, % (no concentration beside the values); 330,000 compounds, 0.066% hits; AID 2462;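 active = over half of replicate activation scores above 10%, or exactly half above 10 with the replicate mean above 10; inconclusive = replicate mean below 10 yet half the replicates above 10; inactive = over half of replicates below 10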;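 also: wells of about 30 µL received 50 nL stock; many hits fall short of the cut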
Calb FLC: affects C. albicans growth with fluconazole; growth inhibition, % (no concentration beside the values); AID 1979; 300,000 compounds, 0.57% hits; C. albicans CaCi-2 (fluconazole-resistant clinical isolate) + fluconazole, Alamar Blue growth, 48 h;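 active = most replicates above 75%; inconclusive = exactly half above 75%; inactive = most below 75%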;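 also: all wells also contain fluconazole at 8 µg/ml as a sub-toxic cotreatment; 0% = median of DMSO wells and 100% = median of geldanamycin control wells; wells of about 8 µL received 7.5 nL stock; the first replicate is given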
Vif A3G: HIV-1 Vif–A3G interaction blockers – biochemical, TR-FRET, GST-Vif 1-94, biotin-A3G peptide, dose response retest, primary screen (AID 1117319). one-dose inhibition, %; IC50 in µM for titrated hits. 260,000 compounds, 0.57% hits. TR-FRET GST-Vif / biotin-A3G peptide binding; higher % means a stronger effect; test concentration not given here; strong numbers were not always called active;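 active = above the screen mean plus three standard deviations and confirmed in dose response; inconclusive = results disagree or hit not tested in dose response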;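 also: Vif residues 1-94 fused to GST binding biotinylated APOBEC3G peptide 110-148; 0% = full assay without inhibitor and 100% = GST in place of GST-Vif; retest series ran down from 100 µM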
Beta cell apopt: beta cell apoptosis inhibition | INS-1E cytokine-induced death, ATP luminescence, 48 h; percent of positive-control rescue, neutral wells zero | protection from apoptosis, % (concentration not given with the values) | 300,000 compounds, 0.8% hits;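 active = all replicates at 75% or more, or half of them and the mean; inconclusive = half reach 75% but not the mean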;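 also: 0% = cytokine-treated negative control wells and 100% = positive control rescue; higher means more ATP so stronger rescue from cytokine killing; wells of about 40 µL received 100 nL stock; the first replicate is given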
RanGTP-Impb inh: disruptors of Ran-importin-beta complex formation – biochemical, FRET, CFP-Ran, YFP-importin-beta, homogeneous, primary screen; cell-free CFP-Ran/YFP-importin-beta FRET ratio; inhibition, % (no concentration beside the values); 300,000 compounds, 1.1% hits; AID 2216;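 active = most replicates above 15%; inconclusive = exactly half above 15%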;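 also: 0% = DMSO wells and 100% = Ran loaded with GDP instead of GTP; wells of about 40 µL received 100 nL stock; the first replicate is given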
AF4-AF9 inh: blocks AF4 peptide binding to human AF9. P42568. AlphaScreen, biotin-AF4 peptide binding to FLAG-AF9. 350,000 compounds, 0.47% hits. inhibition, % at 10 µM. AID 651704;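 active = every replicate reaching a set inhibition limit, whatever the replicate mean, cut at about 25% in these data; inconclusive = mean inhibition reaches that limit but some replicates miss it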;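 also: 0% = plate neutral control median and 100% = total signal loss; the record names both 10 and 1 µM as test concentration; the first replicate is given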
LANA-H2B inh: blocks KSHV LANA binding to histone H2A/H2B. Q9QR71. cell-free LANA-H2A/H2B peptide, fluorescence polarization. inhibition, % (test concentration not listed). 320,000 compounds, 0.6% hits. AID 2629; in the data active = inhibition mostly above about 10%, no sharp cut-off; inactive = mostly below about 6.7%;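 also: stock transfer was 7.5 nL into about 10 µL; 0% = median of vehicle wells and 100% = median of positive control wells; one replicate is shown; the record names a cut of 25% in any replicate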
Target sequence (Q9QR71 whole entry, looked up): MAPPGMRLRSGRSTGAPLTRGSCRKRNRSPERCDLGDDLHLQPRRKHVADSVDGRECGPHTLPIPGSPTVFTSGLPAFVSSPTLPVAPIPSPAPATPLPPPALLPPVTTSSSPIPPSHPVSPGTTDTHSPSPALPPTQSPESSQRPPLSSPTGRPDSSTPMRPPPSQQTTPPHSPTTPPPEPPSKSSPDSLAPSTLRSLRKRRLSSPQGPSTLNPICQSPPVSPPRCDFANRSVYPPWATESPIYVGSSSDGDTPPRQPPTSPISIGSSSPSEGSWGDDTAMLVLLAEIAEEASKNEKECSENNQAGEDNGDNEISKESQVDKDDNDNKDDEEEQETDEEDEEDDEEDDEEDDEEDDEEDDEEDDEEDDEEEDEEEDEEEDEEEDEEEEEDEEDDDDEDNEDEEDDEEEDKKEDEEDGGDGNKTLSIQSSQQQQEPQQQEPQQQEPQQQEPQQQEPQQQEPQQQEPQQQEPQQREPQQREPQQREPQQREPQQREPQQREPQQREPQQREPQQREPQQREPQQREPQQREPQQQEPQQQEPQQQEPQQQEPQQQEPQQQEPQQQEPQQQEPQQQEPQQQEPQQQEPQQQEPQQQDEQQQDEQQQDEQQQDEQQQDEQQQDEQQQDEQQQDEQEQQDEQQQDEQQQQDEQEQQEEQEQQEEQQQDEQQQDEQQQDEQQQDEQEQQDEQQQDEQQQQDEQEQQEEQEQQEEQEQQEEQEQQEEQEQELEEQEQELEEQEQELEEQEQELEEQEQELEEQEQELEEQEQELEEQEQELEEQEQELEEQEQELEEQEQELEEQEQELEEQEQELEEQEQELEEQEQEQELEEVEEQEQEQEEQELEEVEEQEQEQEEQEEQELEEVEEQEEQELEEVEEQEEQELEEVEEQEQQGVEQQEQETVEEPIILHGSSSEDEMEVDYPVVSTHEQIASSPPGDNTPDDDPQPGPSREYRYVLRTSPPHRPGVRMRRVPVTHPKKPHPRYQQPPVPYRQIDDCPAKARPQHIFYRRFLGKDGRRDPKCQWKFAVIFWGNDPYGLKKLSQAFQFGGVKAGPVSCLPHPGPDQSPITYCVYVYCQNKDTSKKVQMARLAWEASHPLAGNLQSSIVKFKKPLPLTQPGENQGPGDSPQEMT
Active calls of the source: *; i = inactive; ? = inconclusive; · = no result given; & = joins results of further samples. Compounds as they come, and some 4.3% of all compounds hit somewhere here.

Values in the order – A1 inh	Vif A3G	RanGTP-Impb inh	LANA-H2B inh	Beta cell apopt	AF4-AF9 inh	Calb FLC	T cruzi inh
> O=C(O)c1ccc(COc2ccc(Cl)cc2)o1
 : -6.3	13%	1.8	0.7	-7	·	4	1
> CCOC(=O)c1nn(-c2ccccc2)c(C#N)c1NC(=O)c1nn(CC)cc1Br
 : -0.4	-2%	2.3	1.8	16	·	-7	29
> CN1CCC2(CC1)NC(=O)NC2=O
 : 0.9	25%	3.1	2.7	-1	·	·	8
> COc1ccc(NC(=O)c2cnc(NS(=O)(=O)c3ccccc3)nc2)cc1
 : -0.7	·	-5.0	-7.0	-5	-1.3	1	3
> Cc1cccc(C)c1NC(=O)C(NC=O)c1ccc(Cl)cc1 (stereo not drawn)
 : -0.1	8%	0.1	-0.8	-1	·	12	2
> COC(=O)c1ccc(/C=N/NC(=O)CC(=O)NC2CCCCC2)cc1
 : -0.2	2%	?	-2.0	·	-0.9	-38	4
> O=C(N/N=C/c1ccc(Cl)c([N+](=O)[O-])c1)C1CC1
 : 0.8	·	3.7	-0.5	-8	·	-21	0
> Cc1ccc(-c2nc(SCC(=O)Nc3cc(S(=O)(=O)N4CCCCC4)ccc3Cl)n[nH]2)cc1
 : -0.4	·	1.3	-1.9	2	·	2	-1
> C=CCC(O)(CCN1CCCCC1)c1ccccc1 (stereo not drawn)
 : -0.1	-1%	-1.2	1.0	5	·	-3	4
> Cc1sc(NC(=O)CSc2nnc(N)s2)c(C#N)c1C
 : -0.8	·	?	0.6	-3	-3.1	-3	5
> O=C1CCC(=O)N1OCCCOc1ccccc1
 : 0.4	12%	3.8	-0.9	-11	·	-5	-7
> N=c1ccn2c(n1)O[C@H]1[C@H](O)[C@@H](CO)O[C@H]12
 : 0.2	-4%	-3.5	0.2	1	-2.8	-1	17
> Cc1occc1C(=O)Nc1cc(C(F)(F)F)ccc1Cl
 : -0.4	5%	0.1	-3.9	3	·	-4	-5
> O=C(NNC(=O)c1n[nH]c(=O)c2ccccc12)c1ccc(Br)cc1
 : -1.3	-2%	-2.8	0.8	-7	-48	0	16
> COc1ccc(OC)c(C2C(C(=O)c3ccco3)=C(O)C(=O)N2CCN2CCOCC2)c1 (stereo not drawn)
 : -0.1	-6%	5.6	-0.6	·	3.0	-4	-18
> O=C(Cc1ccccc1[N+](=O)[O-])NC1CCN(Cc2ccccc2)CC1
 : -0.6	·	-3.7	-2.8	·	0.5	1	41
> COc1ccc(NC(=O)C2CCCN(S(=O)(=O)c3ccccc3)C2)c(OC)c1 (stereo not drawn)
 : 0.4	-11%	-0.4	-4.8	1	-1.2	-12	0
> O=S(=O)(c1ccc(F)cc1)N1CCN(c2ccccc2)CC1
 : 0.4	3%	2.4	1.3	·	·	-21	2
> CC1CCC2C(=O)N(c3ccccc3OC(=O)c3ccccc3)C(=O)C2C1 (stereo not drawn)
 : 0.2	8%	1.2	-1.6	-5	·	0	-18
> O=C(COn1nnc2ccc(C(F)(F)F)cc21)Nc1nnc(-c2ccccc2)o1
 : -0.6	2%&-3%	-2.4	-1.8	-1	·	9	-20
> COc1ccc(C(=O)NCC(O)COc2ccc(C(C)(C)C)cc2)cc1[N+](=O)[O-] (stereo not drawn)
 : -0.3	-7%	1.7	-6.9	0	·	-6	-3
> CC(=O)Nc1ccc(NC(=O)C(C)OC(=O)C(C)SCC(=O)Nc2ccc(F)cc2)cc1 (stereo not drawn)
 : -1.4	-5%	1.3	4.9	·	1.2	-5	-8
> Cc1ccccc1-n1ccnc1SCC(=O)O
 : -0.1	4%	3.6	3.2	-1	·	6	-2
> N#C/C(=N\O)c1nc(-c2ccccc2)cs1
 : -1.1&-1.4	12%&-4%	?	-0.4&4.2	11&-1	·	34&13	-5&-32
> CCn1c(=O)c(C(=O)CN(C)Cc2cccc(OC)c2OC)c(N)n(Cc2ccccc2)c1=O
 : -0.3	-2%&5%	0.8	-0.1	-7	·	-10	20
> CC1CCC(NC(=O)CCN2C(=O)C3CC=CCC3C2=O)CC1 (stereo not drawn)
 : 0.9	·	·	3.1	2	-0.1	·	·
> COc1cccc(C2=NOC(C(=O)Nc3cccnc3)C2)c1 (stereo not drawn)
 : ?	-5%	-0.6	6.3	5	·	-2	-6
> CCSc1nnc2c3cc(CC)ccc3n(C)c2n1
 : -1.1	·	1.4	0.2	-16	·	1	9
> CCCn1c(C)cc(/C=C(\C#N)C(=O)OCC(=O)Nc2cccc(OC)c2)c1C
 : -0.3	-6%	-0.8	-2.0	-7	1.5	4	18
> CCn1c2ccc(F)cc2c2nnc(SCCN3CCOCC3)nc21
 : 0.0	-8%	-0.9	4.4	1	0.8	13	-3

The last 2 entries of the section above open the next one:
Values in the order – A1 inh	Vif A3G	RanGTP-Impb inh	LANA-H2B inh	Beta cell apopt	AF4-AF9 inh	Calb FLC	T cruzi inh
> CCCn1c(C)cc(/C=C(\C#N)C(=O)OCC(=O)Nc2cccc(OC)c2)c1C
 : -0.3	-6%	-0.8	-2.0	-7	1.5	4	18
> CCn1c2ccc(F)cc2c2nnc(SCCN3CCOCC3)nc21
 : 0.0	-8%	-0.9	4.4	1	0.8	13	-3
> Cc1cnc(C(=O)Nc2nc(-c3ccccc3)cs2)cn1
 : 0.8	·	0.2	-0.8	-4	·	25	0
> O=C(NCc1ccccc1F)c1ccc(S(=O)(=O)Nc2cccc(C(F)(F)F)c2)cc1
 : -2.1	-2%	5.4	1.7	2	·	16	-26
> CC1CN(c2oc(-c3cccs3)nc2C#N)CC(C)O1 (stereo not drawn)
 : 1.2	-2%	0.5	-2.2	-4	·	-2	-12
> CCN1CCCC1CNS(=O)(=O)c1cc(Br)cc2c1N(C(=O)C1CC1)CC2 (stereo not drawn)
 : 0.4	-1%	-0.5	2.2	-7	·	-12	2
> Cc1ccc(C(=O)Nc2cccc(C(=O)O)c2)cc1S(=O)(=O)N1CCCCC1
 : -7.5	13%	·	-6.1	-3	·	·	·
> CCOC(=O)C1=C(c2ccccc2)Nc2ncnn2C1c1cc(OC)cc(OC)c1OC (stereo not drawn)
 : 3.0	0%	-1.3	-4.7	3	·	4	52
> O=C1CN2NC(=S)N(c3ccccc3)C2=CN1c1ccc(Cl)cc1
 : -0.5	25%	2.4	4.9	1	-2.7	5	-2
> CNC(=O)C(Sc1nc(C)nc2c1oc1ccccc12)C(C)=O (stereo not drawn)
 : 0.1	3%	-1.1	1.6	-2	·	19	-19
> COc1ccc(O)c(/C=N/NC(=O)c2ccc(N3CCCC3=O)cc2)c1
 : 0.3	·	-0.4	1.9	64	1.1	?	-18
> CCN(CC)S(=O)(=O)c1ccc2c(c1)c(=O)c(C(=O)NCc1cccs1)cn2C
 : -0.1	-2%	-0.9	i	0	·	5	18
> COc1ccccc1OCC(=O)Nc1cc(S(=O)(=O)N2CCCCC2)ccc1N1CCCCC1
 : 0.2	-4%	0.4	0.9	9	?	6	20
> COc1cc2c(cc1OC)C(c1cccc([N+](=O)[O-])c1)NC(=O)C2 (stereo not drawn)
 : 0.6	·	-4.2	-10	·	-3.1	-14	-9
> CCCn1c(SCC(=O)Nc2cc(Cl)ccc2OC)n[nH]c1=O
 : -0.3	5%	6.2	2.2	-2	·	-4	-14
> COc1ccc([N+](=O)[O-])cc1NS(=O)(=O)c1cc(C(=O)N2CCN(C)CC2)ccc1OC
 : 0.2	4%	·	1.1	-2	-0.5	·	·
> COc1ccc(NC(=O)CSc2ccccn2)c([N+](=O)[O-])c1
 : -0.8	-9%	1.3	-0.1	·	11	-8	7
> CCNC(=S)NNC(=O)c1ccc(S(=O)(=O)NCc2ccco2)cc1
 : -1.3	1%	·	1.9	-6	0.3	·	·
> NC(=O)Nc1ccc(F)cc1
 : 0.8	2%	1.4	-0.5	-3	·	7	8
> CCN1CCCc2cc(CN(CCN3CCOCC3)C(=O)Nc3ccc(C)c(C)c3)ccc21
 : 1.2	7%	7.5	5.8	-1	·	11	40
> COCCNCCCOc1ccc(Br)cc1Cl
 : 1.9	6%	3.9	-3.8	2	·	1	14
> COc1cccc(CNC(=O)CNC(=S)N(Cc2ccccc2)Cc2ccccc2F)c1
 : ·	·	-2.3	·	·	-0.6	-1	6
> CCOC(=O)C1(C)NC(c2cc(OC)c(OC)c(OC)c2)C2C(=O)N(CC)C(=O)C21 (stereo not drawn)
 : 0.6	-2%	-2.8	-0.7	-6	·	16	4
> S=C(c1ccccc1)N1CCCc2ccccc21
 : -0.3	-8%	-3.7	3.5	-6	·	-1	14
> O=C(NCc1cccc2[nH]ccc12)C1CCC(=O)N(CCc2ccccc2)C1 (stereo not drawn)
 : 0.7	·	-0.9	4.4	-3	2.8	17	-10
> CCNc1nc2c(c(=O)[nH]c(=O)n2C)n1CCCc1ccccc1
 : 0.5	·	-3.2	4.1	1	-3.1	4	-12
> O=C(Cc1c(Cl)cccc1Cl)Nc1cccc(S(=O)(=O)N2CCOCC2)c1
 : -0.2	-7%	5.4	-1.4	-1	-0.9	38	-6
> COC(=O)c1cc2ccsc2n1Cc1nc(-c2cccc(Cl)c2)oc1C
 : 1.6	3%	11	4.3	-7	4.0	7	8
> Cc1[nH]c(C(=O)N/N=C/c2ccc(N(C)C)cc2)c(C)c1C(=O)N/N=C/c1ccc(N(C)C)cc1
 : -0.7	3%	3.1	-1.7	8	2.9	-7	1
> Cc1cccc(-n2c(C)cc(C=C3C(=O)c4ccccc4C3=O)c2C)c1
 : -4.1	2%	-8.9	-1.0	4	·	3	-14
> CC1(c2ccccc2Cl)NC(=O)N(CC(=O)N2CCN(S(=O)(=O)c3ccccc3)CC2)C1=O (stereo not drawn)
 : 0.8	3%	-3.4	4.9	1	0.1	-5	4
> COC(=O)c1cn(-c2ccccc2)nc1-c1ccc(OC)cc1
 : -0.3	-6%	0.9	0.6	-5	-5.0	8	-20
> CCCCC(=O)Nc1cccc(NC(=O)c2ccc(Br)o2)c1
 : 1.0	?	38*	1.3	2	·	24	1
> COc1cc(CC(=O)OCc2cccc([N+](=O)[O-])c2)cc(OC)c1OC
 : -1.5	·	1.2	-2.3	·	2.2	11	2

From PubChem BioAssay
